# Bioassay records from PubChem.
# TRPV1 potentiator: enhances activation of the human vanilloid receptor TRPV1. Q8NER1. TRPV1-expressing cells, Fluo-8 calcium influx, capsaicin EC20 potentiation; host cell line not named in the record; control for the full effect not named in the record. potentiation, % at 8.33 µM. 320,000 tested, 0.02% active. AID 540277; active means potentiation above 80%; inconclusive means 30% to 80%; inactive means below 30%; also: 0% is about no effect
# Target sequence (Q8NER1 whole entry, looked up): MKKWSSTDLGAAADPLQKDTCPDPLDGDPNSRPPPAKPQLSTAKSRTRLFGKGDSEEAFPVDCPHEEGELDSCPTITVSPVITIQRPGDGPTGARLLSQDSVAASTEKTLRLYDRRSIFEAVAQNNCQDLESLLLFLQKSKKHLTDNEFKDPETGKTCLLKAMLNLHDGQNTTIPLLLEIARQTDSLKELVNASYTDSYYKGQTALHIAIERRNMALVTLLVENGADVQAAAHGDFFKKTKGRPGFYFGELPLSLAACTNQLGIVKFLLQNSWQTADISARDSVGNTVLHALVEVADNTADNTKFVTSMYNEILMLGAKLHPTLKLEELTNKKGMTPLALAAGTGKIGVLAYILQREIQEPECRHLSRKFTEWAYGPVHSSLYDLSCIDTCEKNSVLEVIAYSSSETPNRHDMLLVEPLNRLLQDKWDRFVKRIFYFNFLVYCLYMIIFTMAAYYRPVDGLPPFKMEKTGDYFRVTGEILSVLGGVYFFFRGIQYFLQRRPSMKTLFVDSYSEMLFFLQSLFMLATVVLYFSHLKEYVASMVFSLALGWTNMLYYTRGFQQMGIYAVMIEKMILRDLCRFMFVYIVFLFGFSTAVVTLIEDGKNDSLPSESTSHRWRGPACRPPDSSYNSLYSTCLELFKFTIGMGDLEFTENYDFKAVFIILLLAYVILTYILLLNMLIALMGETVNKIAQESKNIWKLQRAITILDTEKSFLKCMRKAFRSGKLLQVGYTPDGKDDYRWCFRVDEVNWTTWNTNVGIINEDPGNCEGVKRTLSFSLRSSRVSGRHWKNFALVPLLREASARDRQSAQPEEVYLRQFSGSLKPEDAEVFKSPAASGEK
#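 Fluo-8 calcium influx in TRPV1-expressing cells, kinetic read (ex 480/em 520 nm). Compound added and read 3 min for agonist activity, followed by capsaicin at EC20 final and 2 min further read for enhancement.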
# * = called active by the depositor; i = inactive; ? = inconclusive. These rows are one share of the data, so the mix of outcomes need not match the whole.
SMILES,TRPV1 potentiator
C#CCOCCOCCOCCNc1nc(N2CCN(C(=O)[C@H]([C@@H](C)CC)n3cc([C@@H](N)CO)nn3)CC2)nc(N2CCN(C(=O)[C@H](Cc3cc4ccccc4[nH]3)n3cc([C@@H](N)C(C)CC)nn3)CC2)n1 (stereo not given in full),23.6
COc1cc2cc(Oc3ccc4ccc(=O)oc4c3)c(=O)oc2cc1OC(=O)C=C(C)C,?
C#CCOCCOCCOCCNc1nc(N2CCN(C(=O)CCCCCCCCCCNC(=O)[C@H](CO)n3cc(CCCCCN)nn3)CC2)nc(N2CCN(C(=O)CCCCCCCCCCNC(=O)[C@H](CCCN=C(N)N)n3cc(C[C@@H](C)CC)nn3)CC2)n1,19.1
COc1ccc(C(=O)NC(=O)COC(=O)c2ccc3ncsc3c2)cc1,?
Cc1cc(-c2ccccc2)nc(N2CCC(C(=O)NCc3ccccc3Cl)CC2)n1,14.1
CCN(CC)CCCN1C(=O)C(O)=C(C(=O)c2ccc(C)o2)C1c1cccs1 (stereo not given),-4.2
Cc1ccccc1[C@]1(C)ON(c2ccccc2C(F)(F)F)C1=O,3.0
COc1ccc2c(c1)C(=O)[C@@H](OC(=O)NCc1ccc3c(c1)OCO3)[C@H](c1ccc(OC)c(Br)c1)O2,6.4
C/C(CCC(=O)OC[C@H]1O[C@H](C#Cc2ccccc2)C=C[C@@H]1Oc1ccc(C)cc1)=N\OC[C@@H](O)[C@H]1O[C@@H]2OC(C)(C)O[C@@H]2[C@H]1O,-3.8
O=C(NCc1ccco1)c1cccn2c(=O)c3cc4ccccc4cc3nc12,8.4
Cc1ccsc1C1CC(=O)OC2=C1C(=O)CC(C)(C)C2 (stereo not given),3.1
CCCC(=O)N1CCN(c2ccc(C(=O)c3ccc(OC)c(Br)c3)cc2F)CC1,3.7
CSCCC(N=Cc1c(O)n(-c2ccc(F)cc2)c(=O)[nH]c1=O)C(=O)O (stereo not given),-22.1
O=C(c1ccco1)N1CCN(c2ncnc3c2[nH]c2ccc(Cl)cc23)CC1,3.8
COc1cc(/C=C(\C#N)c2nc3c(s2)CC(C)CC3)ccc1O (stereo not given),-2.6
CC(=O)c1ccccc1NC(=O)CSc1nnc2ccccn12,-4.0
COc1ccc(CN2C(=O)/C(=C/c3ccc(-c4ccc(Cl)c(C(=O)O)c4)o3)SC2=S)cc1,11.5
N[C@@H](Cc1c[nH]c2ccccc12)C(=O)O,-11.1
CCCCN(C(=O)c1cccc(-n2cccc2)c1)c1c(N)n(Cc2ccccc2)c(=O)[nH]c1=O,12.2
COc1ccc([C@]23Cc4ccccc4C(O2)c2c(cc(-c4ccccc4)oc2=O)O3)cc1,i

# Pulled one by one from the list above:
SMILES,TRPV1 potentiator
Cc1ccsc1C1CC(=O)OC2=C1C(=O)CC(C)(C)C2 (stereo not given),3.1
CC(=O)c1ccccc1NC(=O)CSc1nnc2ccccn12,-4.0
COc1cc2cc(Oc3ccc4ccc(=O)oc4c3)c(=O)oc2cc1OC(=O)C=C(C)C,?
O=C(NCc1ccco1)c1cccn2c(=O)c3cc4ccccc4cc3nc12,8.4
COc1ccc2c(c1)C(=O)[C@@H](OC(=O)NCc1ccc3c(c1)OCO3)[C@H](c1ccc(OC)c(Br)c1)O2,6.4
CSCCC(N=Cc1c(O)n(-c2ccc(F)cc2)c(=O)[nH]c1=O)C(=O)O (stereo not given),-22.1
Cc1cc(-c2ccccc2)nc(N2CCC(C(=O)NCc3ccccc3Cl)CC2)n1,14.1

# Following part:
SMILES,TRPV1 potentiator
Cc1ccc(NC(=O)CN2C(=O)S/C(=C\c3ccc(-c4cccc(C(=O)O)c4C)o3)C2=O)cc1,2.9
O=C(O)c1cc(-c2c[nH]c3ccccc23)nc2cc3ccccc3cc12,2.0
O=C(CN1CCN(CCN2C(=O)c3cccc4cccc(c34)C2=O)CC1)c1ccc(Cl)cc1,22.8
COc1ccc(O[C@H]2C=C[C@@H](c3ccccc3)O[C@@H]2CO/N=C/C[C@@H]2C=C[C@H](OC(C)=O)[C@@H](COC(C)=O)O2)cc1,4.6
COc1ccc(/C=N/c2sc3c(c2C#N)CCN(Cc2ccccc2)C3)c(O)c1,3.4
O=c1c2c3nc4ccccc4nc3n(-c3cccc(F)c3)c2ncn1Cc1ccc2c(c1)OCO2,4.2
Brc1ccc(-c2nnc3ccc(Nc4ccccc4)nn23)cc1,26.9
Cn1c(=O)c2c(nc(N3CCOCC3)n2CC(=O)c2ccccc2)n(C)c1=O,12.4
O=C1CSC(=S)N1/N=C/c1cc(Br)ccc1O,3.5
CC(=O)NN1C(=O)c2ccc(Oc3ccc4c(c3)C(=O)N(NC(C)=O)C4=O)cc2C1=O,10.4
CC(=O)OC1=C(C#N)Cn2ccc3cccc1c32,-2.7
O=C(O)Cc1cc(I)c(Oc2ccc(O)c(I)c2)c(I)c1,-1.4
CCCCCCc1cc2cc(C(N)=O)c(=N)oc2cc1O,5.5
COc1ccccc1N1CCN(C(=O)Cn2nc3n(C)c4ccccc4n3c(=O)c2=O)CC1,19.5
C/C(=N\NC(=O)Cc1c(C)[nH][nH]c1=O)c1ccc2ccccc2c1,?
C/C(CCN1CCCCc2nc(C)c(C)cc21)=N\OC[C@@H](O)[C@H]1O[C@@H]2OC(C)(C)O[C@@H]2[C@H]1O,5.3
Oc1c(C(c2cccs2)N2CCN(c3ccccc3)CC2)ccc2cccnc12 (stereo not given),17.0
COc1cc(OC)c(C2CC(=O)N3CN(c4ccccc4C)CSC3=C2C#N)cc1OC (stereo not given),4.4
COc1cc(N/C=C(\C(C)=O)c2ccccc2)cc(OC)c1,6.0
CCc1ccc(Nc2n[n+](C)c(-c3ccc(C(=O)O)cc3)s2)cc1,9.1
COc1ccc(C(=O)/C=C/Nc2ccc(S(=O)(=O)Nc3ncccn3)cc2)cc1,15.0
O=C(NCc1cccs1)c1cc(-c2ccncc2)nc2ccc(Br)cc12,15.6
Cc1ccc(C2=[N+]([O-])C3(CCCCC/C3=N\NC(N)=S)N(O)C2(C)C)o1 (stereo not given),2.7
O=C(c1ccc(CS(=O)(=O)c2ccc(Br)cc2)o1)N1CCN(C2CCCCC2)CC1,2.1
O=C1C2=C(C(=O)c3ccccc31)C1O[C@](CCCCN3C(=O)c4ccccc4C3=O)(Cc3c1ccc1ccccc31)O2,i
CCC(=O)NC(c1cc(Cl)c2ccccc2c1O)C(C)C (stereo not given),2.0
CC(=O)Nc1ccc(S(=O)(=O)Nc2ccc3c(c2)C(=O)OC3)cc1,4.9
COc1cc(OC)cc(C(=O)NCCSCc2ccco2)c1,4.7
CC1CN(S(=O)(=O)c2ccc(C(=O)Nc3sc4c(c3C(N)=O)CCN(C)C4)cc2)CC(C)O1 (stereo not given),-4.8
CC[C@@H]1CC=C[C@H]2[C@H]1C(=O)N(Cc1ccccc1)[C@H]2c1ccc2ccccc2c1,-3.9
CCc1ccc(/C=C2/SC(=S)N(CCC(=O)Nc3ccc(C(=O)O)cc3)C2=O)cc1,3.0
Cc1ccc(-c2nn(-c3ccccc3)c3[nH]c(=O)c(CNCCN(C)C)cc23)cc1,-2.7
Cc1ccc(Cn2c(SCC(=O)Nc3cccc(C)n3)nc3c2c(=O)n(C)c(=O)n3C)cc1,?
Cc1sc2nc(-c3ccncc3)[nH]c(=O)c2c1-c1ccccc1,-2.9
CCCCC(=O)Nc1cccc(C(C)O)c1 (stereo not given),-2.4
Cc1ccc2nc(-c3ccccc3)nc(SC(C)C(=O)NCc3cccs3)c2c1 (stereo not given),1.1
Cn1cc(C(=O)NCc2cccnc2)c(=O)c2cc(S(=O)(=O)N3CCCCCC3)ccc21,3.0
CN(C)CCNCCCOc1ccccc1-c1ccccc1,4.6
O=C(O)CN1CCNCC1,2.4
Cn1c(=O)c2c(ncn2CC(=O)N/N=C/c2c[nH]c3ccccc23)n(C)c1=O,5.9

# Grouped by structure, those above with an aryl thioether with sulfur outside any ring.
SMILES,TRPV1 potentiator
CC(=O)c1ccccc1NC(=O)CSc1nnc2ccccn12,-4.0
Cc1ccc(Cn2c(SCC(=O)Nc3cccc(C)n3)nc3c2c(=O)n(C)c(=O)n3C)cc1,?
Cc1ccc2nc(-c3ccccc3)nc(SC(C)C(=O)NCc3cccs3)c2c1 (stereo not given),1.1

# (list continues)
SMILES,TRPV1 potentiator
CCOc1ccc(S(=O)(=O)n2ccnc2C)cc1,3.8
CC1CC(C)CN(CCCNC(=O)C2CCN(c3ncnc4c3sc3cccc(F)c34)CC2)C1 (stereo not given),?
CC(C)/C=C/CN1CCC(Oc2ccc(C(=O)N3CCCC3)cc2)CC1,?
CCOC(=O)COc1cccc2c(=O)n(CC(=O)NCCc3ccc(OC)c(OC)c3)ccc12,22.4
O=C(Sc1cccc2cccnc12)c1ccc(F)cc1,13.4
COC(=O)c1c(-c2ccc(OC)cc2)sc2ccccc12,-23.3
Cc1ccc(S(=O)(=O)C(C#N)c2nc3ccccc3nc2N2CCCCC2)cc1 (stereo not given),19.9
Cc1occc1C(=O)n1cnc2ccccc21,12.7
CCOC(=O)c1c(NC(=O)C2=C(C)NC(=S)NC2c2ccc(CC)cc2)sc(C)c1C (stereo not given),6.6
Cc1nn(-c2ccccn2)c2c1C(c1ccccn1)C1=C(CCCC1=O)N2 (stereo not given),-9.5
O=C(Nc1ccccc1Cl)C1CC(=O)n2c(nc3ccccc32)N1 (stereo not given),-2.4
Cc1ccnc(NS(=O)(=O)c2cc(C(F)(F)F)ccc2Cl)c1,6.9
Clc1cccc(Cl)c1NC1=NCCN1,-7.0
CCOCC(=O)Nc1cc(C(=O)Nc2ccc(F)cc2)ccc1Cl,-9.4
O=C1NN(c2ccc(Cl)c(Cl)c2)C(=O)/C1=C/c1cccc(OC(=O)c2cccs2)c1,3.2
CCCC(C)NC(=O)c1ccc(-c2ccccc2)cc1 (stereo not given),-4.2
O=C(Cn1c2ccc(F)cc2c2nc3n(c(=O)c21)CCS3)Nc1ccccc1F,1.0
Cc1nc2c3ccccc3n(CCN3CCCCC3)c2s1,-9.6
O=C(O)Cc1cc(C(=O)Nc2ccc(Br)cc2)sc1-c1ccccc1,3.4
COc1cc(-c2noc(CCC(N)=O)n2)cc(OC)c1OC,-11.9
Cc1cc(C)nc(NC(=O)c2ccc3c(c2)OCO3)c1,-25.7
Cc1nc(NC(=O)c2ccc(Cl)cc2)sc1-c1csc(Nc2cccc(F)c2)n1,0.6
CCN(CC)CCN1C(=O)C(=O)/C(=C(/O)c2cnn(-c3ccccc3)c2C)C1c1cccs1 (stereo not given),-0.4
ClCC1=Nc2cccc3cccc(c23)N1,21.0
CCn1c(C)nc2cc(C(=O)NNC(=O)Nc3ccc(Cl)c(Cl)c3)ccc21,5.2
C#CCOCCOCCOCCNc1nc(N2CCN(C(=O)[C@H](C)n3cc(CCCN=C(N)N)nn3)CC2)nc(N2CCN(C(=O)[C@H](Cc3ccc(O)cc3)n3cc(CCO)nn3)CC2)n1,26.4
CCN(CC)CCN1C(=O)C(=O)/C(=C(/O)c2ccc(C)cc2)C1c1ccncc1 (stereo not given),-3.0
Cc1nc(C)c(C)nc1C,-1.6
COc1ccc(CC(=O)NNC(=O)Cc2ccc(OC)cc2)cc1,1.4
CCOC(OCC)c1cn(Cc2ccc3c(c2)C(=O)c2ccccc2C3=O)nn1,-1.0
Cc1ccc(CSCC(N)C(=O)O)cc1 (stereo not given),11.3
Cc1noc2nc(-c3cccs3)cc(-c3nnc4n3CCCCC4)c12,-2.6
CC1=CC(=Nc2c(C)n(C)n(-c3ccccc3)c2=O)C=CC1=O,-2.6
Cc1ccc2c(c1)C1C=CCC1C(C(=O)O)N2 (stereo not given),5.0
O=C(/C=C/c1ccco1)c1ccc(O)cc1,-16.8
O=C1c2ccccc2NC(c2ccc(-c3cccs3)o2)N1O (stereo not given),-5.5
O=C(C1=C(O)C(=O)N(CCCN2CCOCC2)C1c1ccccn1)c1cccs1 (stereo not given),-7.2
O=C1N=c2ccc(Br)cc2=C1c1sc(=O)[nH]c1O,-35.1
N#Cc1c(Cl)nc(SCc2ccccc2)nc1-c1ccccc1,-7.6
CCn1c(SCC(=O)Nc2ccccc2C(=O)OC)nc2c1c(=O)n(C)c(=O)n2C,-1.1
COC(=O)c1ccccc1NC(=O)CSc1nnc(-c2ccc(C)cc2)o1,6.9
CCOc1cc(S(=O)(=O)NCc2ccccn2)c(C)cc1C,-15.4
COc1cc2c(cc1OC)C1O[C@](c3ccsc3)(C2)Oc2cc(C)n(Cc3ccccc3)c(=O)c21,i
Cc1ccc2c(c1)c1nnc(SCC(=O)NC3CC3)nc1n2C,-6.1
CN(C)CCCN1C(=O)C(=O)/C(=C(/O)c2ccc(OCc3ccccc3)cc2)C1c1cccnc1 (stereo not given),-9.0
COc1cc([C@@H]2c3cc4c(cc3[C@@H](O)[C@@H](CO)[C@@H]2CO)OCO4)cc(OC)c1O[Si](C)(C)C(C)(C)C,6.7
O=C(Cc1c[nH]c2ccccc12)Nc1cccc(S(=O)(=O)N2CCCCC2)c1,2.7
CCOC(=O)C1(CC2CC2)CCN(Cc2ccc(O)c(Cl)c2)CC1,-6.7
O=C(NC1CCS(=O)(=O)C1)c1cccnc1 (stereo not given),1.4
COC(=O)c1c(N)n(-c2ccc(N3CCOCC3)cc2)c2nc3ccccc3nc12,24.4
Cc1ccc(N(CCC(=O)Nc2nnc(C3CC3)s2)S(=O)(=O)c2ccccc2)cc1,5.7
Cc1ccccc1NC(=O)c1ccc(Cl)c(NC(=O)c2cccnc2)c1,10.3
Cc1ccc(-n2c(=O)c3sccc3n(Cc3cc(=O)n4ccccc4n3)c2=O)cc1F,-1.6
COc1cc2c(cc1OC)[C@@H]1O[C@](c3ccsc3)(C2)Oc2cc(C)n(-c3ccccc3)c(=O)c21,i
O=C(Nc1nc2ccccc2s1)c1ccc2c(c1)S(=O)(=O)c1ccccc1C2=O,4.7
Cc1cccc(/C(N)=N/OC(=O)c2cccc3ccccc23)c1,2.7
Cc1nc(C2CCC3C4CCC5=CC(=O)CC[C@]5(C)C4CC[C@]23C)cs1 (stereo not given in full),-5.8
O=C1C2CCCN2c2ccc(S(=O)(=O)N3CCOCC3)cc2N1Cc1cccc(C(F)(F)F)c1 (stereo not given),-3.7
CNC(=O)c1c(NC(=O)c2nc3ccccc3s2)sc2c1CCC2,3.3
